# SARS PLP yeast: qHTS of Yeast-based Assay for SARS-CoV PLP | S. cerevisiae expressing SARS-CoV PLpro, growth rescue; control for the full effect not named in the record | Potency, µM (titrated, usually from 32.9 µM), for inactives: at the top dose activity, positive = growth rescue | 330,000 compounds, 0.19% hits | AID 485353, 2010; active means well fitted rising curve with a large enough effect; inconclusive means small, poorly fitted or top-dose-only effect; inactive means no such curve, though single readings can be large or run the other way; also: 0% is about no effect; nearly all actives have a fitted effect of over 55% in size; growth read by luminescence after 48 h
# NS1 inh: qHTS Assay for Inhibitors of Influenza NS1 Protein Function. Potency, µM (series often up to 46.1 µM), without a hit: at the top dose activity, positive = more growth. 270,000 compounds, 0.4% hits. S. cerevisiae slowed by influenza A NS1, growth recovery by OD600; active means well fitted rising curve with a large enough effect; inconclusive means small, poorly fitted or top-dose-only effect; inactive means no such curve, though single readings can be large or run the other way; also: nearly all actives have a fitted effect of over 50% in size
#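 OD600 was taken as the measure of yeast growth restored by compound in an NS1-expressing S. cerevisiae strain. Cells had been washed out of glucose medium and diluted 1:100 into galactose -URA medium, pH 6.0.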
# StopGo reporter: High Throughput Screening for Foot and Mouth Disease Virus Antivirals | Potency, µM (doses to about 57.9 µM), inactives show at the highest dose signal change, negative = less light | AID 1159524, 2015 | human cells with a luciferase reporter of 2A StopGo recoding; control for the full effect not named in the record | 410,000 compounds, 1.2% hits; active = well fitted falling curve with a large enough effect; inconclusive = small, poorly fitted or top-dose-only effect; inactive = no such curve, though single readings can be large or run the other way; tested in HEK293T cells; also: % is scaled to controls: 0 for no effect and ±100 for the full control effect; nearly all actives have a fitted effect of over 45% in size; luciferase light after 4 h
# Marburg entry inh: qHTS for inhibitors of binding or entry into cells for Marburg Virus; Potency, µM (top dose mostly 37.8 µM), for the others: at the highest dose activity change, negative = inhibition, usual class: inhibitors; 300,000 compounds, 1.8% hits; Marburg virus pseudotyped entry inhibition, cell reporter; control for the full effect not named in the record; about a third of the inactives were read at about 46 µM; active = well fitted inhibition curve with a large enough effect; inconclusive = small, poorly fitted or top-dose-only effect, or effect the other way; inactive = flat fitted curve, though single readings scatter; tested in HEK293 cells; about a fifth of its hits are not listed in these tables; also: % is scaled to controls: 0 for no effect and ±100 for the full control effect; luciferase read-out
# Lassa entry inh: qHTS for Inhibitors of binding or entry into cells for Lassa Virus; AID 540256, 2011; Lassa virus pseudotype entry inhibition, cell reporter; control for the full effect not named in the record; Potency, µM (series often up to 37.9 µM), for the others: at the highest dose activity change, negative = inhibition, most hits filed as inhibitors; 300,000 compounds, 1.2% hits; active means well fitted inhibition curve with a large enough effect; inconclusive means small, poorly fitted or top-dose-only effect, or effect the other way; inactive means flat fitted curve, though single readings scatter; tested in HEK293 cells; also: % is scaled to controls: 0 for no effect and ±100 for the full control effect; nearly all actives have a fitted effect of over 50% in size; luciferase read-out
# RE007 growth inh: qHTS Assay for Inhibitors of the HIV-1 protein Vpr | 360,000 compounds, 0.21% hits | Potency, µM (top dose mostly 92.2 µM), inactives show top-dose activity change, negative = less growth | S. pombe RE007 Vpr strain, BacTiter-Glo ATP luminescence, 24 h; control for the full effect not named in the record; active = well fitted falling curve with a large enough effect; inconclusive = small, poorly fitted or top-dose-only effect; inactive = no such curve, though single readings can be large or run the other way;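 also: % is scaled to controls: 0 for no effect and ±100 for the full control effect; nearly all actives have a fitted effect of over 50% in size; the assay follows cell death caused by Vpr and the record does not say whether a fall means rescue or toxicity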
#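 Fission yeast RE007 carrying one integrated HIV-1 vpr copy, seeded at OD 0.01 in PMG+AL medium with 23 nL pinned compound. Grown 24 h at 30 degrees; viability read by BacTiter-Glo luminescence after 5 min.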
# Cruzain inh Det: qHTS Assay for Promiscuous and Specific Inhibitors of Cruzain (with detergent); purified cruzain, Z-FR-AMC fluorescence, 0.01% Triton; Potency, µM, inactives show max response, negative = inhibition, most hits filed as inhibitors; 200,000 compounds, 0.43% hits;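 also: plate controls were neutral wells for no effect and buffer without enzyme for full effect; nearly all actives have a fitted effect of over 40% in size; top concentration of the series not given in the record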
# Target sequence (P25779 123-467 limits assumed): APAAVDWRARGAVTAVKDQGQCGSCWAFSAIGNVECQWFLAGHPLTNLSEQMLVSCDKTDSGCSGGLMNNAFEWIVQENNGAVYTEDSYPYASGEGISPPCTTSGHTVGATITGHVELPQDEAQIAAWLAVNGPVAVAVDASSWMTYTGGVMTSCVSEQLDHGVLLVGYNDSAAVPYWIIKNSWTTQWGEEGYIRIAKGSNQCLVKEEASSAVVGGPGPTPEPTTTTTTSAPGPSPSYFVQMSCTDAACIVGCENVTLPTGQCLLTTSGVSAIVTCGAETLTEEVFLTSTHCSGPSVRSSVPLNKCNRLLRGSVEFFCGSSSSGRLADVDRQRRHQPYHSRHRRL
#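 In this qHTS format, compounds are incubated with 1.5 nM cruzain for 15 min at room temperature before 2 uM Z-FR-AMC is added. Release of AMC is followed at 360/450 nm, and progress is taken as the 60 s fluorescence difference.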
# Cruzain noTriton: qHTS Assay for Promiscuous and Specific Inhibitors of Cruzain (without detergent); 200,000 compounds, 2.3% hits; AID 1476, 2009; Cruzipain (Trypanosoma cruzi), P25779; Potency, µM, for inactives: max response, negative = inhibition, most hits filed as inhibitors; purified cruzain, Z-FR-AMC fluorescence, no detergent;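 also: plate controls were enzyme without inhibitor for no effect and buffer without enzyme for full effect; nearly all actives have a fitted effect of over 40% in size; top concentration of the series not given in the record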
#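 Detergent-free condition (0.00005% Triton X-100) in acetate buffer pH 5.5 with DTT. 1.5 nM enzyme and compound were pre-mixed 15 min, then 2 uM Z-FR-AMC substrate added; reaction progress from fluorescence change between first and third reads (60 s).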
# Active calls of the source: *; ? = inconclusive; . = not tested or not shown; & = joins results of further samples; [ ] = dose if it differs, or a comment. Unless noted, calls follow the shape of the dose curve; as a rule, active = well fitted curve in the direction sought with a large enough effect; inconclusive = small, poorly fitted or top-dose-only effect, or another doubt; inactive = no such curve, though single readings can be large; an effect the other way counts as inactive or inconclusive. Potency is read from the fitted curve at half-maximal effect. Not a hit list; any-hit rate near 4.6%.
SMILES,SARS PLP yeast,NS1 inh,StopGo reporter,Marburg entry inh,Lassa entry inh,RE007 growth inh,Cruzain inh Det,Cruzain noTriton
CCOC(=O)C1=C(NC(=S)NC(=O)c2ccccc2)c2ccccc2CC12CCCC2,-11%,-12%,?,3.7µM*,2.6µM*,0%,-3.8%,-7%
COc1ccc(C(C(=O)NC2CCCCC2)N2CCC3(CC2)OCCO3)cc1 (stereo not given),-7%,1%,-8%,7%[46.1 µM],-17%,14%,-0.3%,12%
COC(=O)c1sc(S(=O)(=O)N2CCC(C)CC2)c(C(=O)OC)c1C,-9%,-63%,38%[activator],-15%,-7%,-7%,-6.5%,13%
O=C(Nc1ccc(-n2cccn2)cc1)C1CCCCN1Cc1cccc2c1OCO2 (stereo not given),3%,-2%,-16%,.,.,-27%,.,.
COc1ccc2nc(SCC(=O)N3CCN(c4ccc(F)cc4)CC3)c(C#N)cc2c1,4%,27%,-21%,-13%,-5%,-14%,-4.6%,?
CC(=O)Nc1cccc(C(=O)OCC(=O)NNC(=O)c2cccs2)c1,0%,.,-14%,?,8%,-29%,.,.
COC(=O)Nc1ccc(S(=O)(=O)N2CCC(Cc3ccccc3)CC2)cc1,-7%,3%,-25%,?,21µM*,12%,-2.3%,11%
CN1C(=O)c2ccccc2Sc2ccc(NC(=O)c3ccc(C(F)(F)F)cc3)cc21,.,.,?,.,0%[46.1 µM],.,0.7%,-7%
COc1cccc(-c2nc(-c3ccccn3)no2)c1,?,-18%,20µM*,2.3µM*,1.5µM*,?,2.8%,5%
Cc1cccc(C)c1NC(=O)CSC(=O)c1sc2ccccc2c1Cl,1%,9%,-20%,0%[14.2 µM],4%,6%,.,.
COc1ccc(S(=O)(=O)Nc2cccc(/C=C/C(=O)O)c2)cc1,-7%,15%,15%,-2%,1%,-5%,-1.1%,-3%
CCOC(=O)C1(Cc2cccc(Cl)c2)CCCN(C(=O)c2ccco2)C1 (stereo not given),3%,10%,-3%,.,.,-8%,.,.
COc1ccc(CCNC(=O)CSc2nnc(Cc3csc(N)n3)n2C)cc1OC,-5%,-3%,-6%,-2%,-2%,-4%,0.9%,-2%
O=c1c(NCCc2ccc(Cl)cc2)c(-c2ccccc2)c1=O,-1%,1%,-2%,.,.,-10%,.,.
O=C(O)c1cccc(N2C(=O)c3cccnc3C2=O)c1,.,5%,-2%,-9%,-1%,4%[3.69 µM],-0.3%,0%
COc1cc(OC)c2ccc(=O)oc2c1C(CCN1CCCC1)c1ccc(N(C)C)cc1 (stereo not given),-1%,-7%,-24%,.,.,-20%,.,.
COc1cccc(C2N=C(c3ccccc3C)NO2)c1OC (stereo not given),-7%,-8%,71%[activator],13%[46.1 µM],0%,-18%,.,.
COc1ccc(CCNC2CC(=O)N(CCc3ccc(OC)c(OC)c3)C2=O)cc1OC (stereo not given),-6%,-11%,0%,-17%,27%,-12%,5.0%,12%
COc1ccc(N2C(=O)CC(Sc3nc(C)c4c(n3)CCCC4)C2=O)cc1 (stereo not given),-10%,6%,-17%,?,?,-1%,0.7%,3%
O=[N+]([O-])c1ccc(C(O)C[n+]2ccccc2)cc1 (stereo not given),-2%,0%,-21%,.,.,-19%,.,.
O=C(O)Cn1nc2ccccc2n1,4%,1%,-11%,2%,10%,2%,3.3%,4%
COC(=O)C1=C(C)NC(C)=C(C(=O)OC)C1c1ccccn1,4%,1%,-12%,2%,5%,-2%,-3.1%,-6%
Cc1cc(C)c(N=C2SCC(=O)N2Cc2ccco2)c(C)c1,-4%,3%,-26%,?,?,20%,.,.
CCOC(=O)CCCSc1nc(-c2ccc3c(c2)OCO3)cc(C(F)(F)F)c1C#N,14%,2%,0%,4%,3%,-7%,-3.6%,25µM*
CCC(C)(C)n1nnnc1CN1CCC(NC(=O)c2ccccc2C)CC1,7%,-12%,2%,4%[46.1 µM],4%,-4%,3.8%,7%

# Among those listed so far, these contain a CF3 group:
SMILES,SARS PLP yeast,NS1 inh,StopGo reporter,Marburg entry inh,Lassa entry inh,RE007 growth inh,Cruzain inh Det,Cruzain noTriton
CN1C(=O)c2ccccc2Sc2ccc(NC(=O)c3ccc(C(F)(F)F)cc3)cc21,.,.,?,.,0%[46.1 µM],.,0.7%,-7%
CCOC(=O)CCCSc1nc(-c2ccc3c(c2)OCO3)cc(C(F)(F)F)c1C#N,14%,2%,0%,4%,3%,-7%,-3.6%,25µM*

# New compounds follow.
SMILES,SARS PLP yeast,NS1 inh,StopGo reporter,Marburg entry inh,Lassa entry inh,RE007 growth inh,Cruzain inh Det,Cruzain noTriton
CC(=O)Nc1ccc(C(=O)CN2C(=O)NC3(CCCc4ccccc43)C2=O)c(F)c1 (stereo not given),6%,.,11%,6%[46.1 µM],11%[46.1 µM],-3%,.,.
Nc1ccc(-c2c3ccccc3nc3ccccc23)cc1,1%,3%,-12%,12%,12%,-7%,.,.
O=c1ccc(Cc2ccccn2)n[nH]1,18%,15%,12%,15%,-6%,3%,8.0%,-7%
O=C(NCCCn1ccnc1)c1cc2cc([N+](=O)[O-])ccc2oc1=O,?,2%,-21%,13%,-8%,-14%,-3.5%,-8%
O=S(=O)(c1ccc(S(=O)(=O)N(Cc2cccs2)CC2CCCO2)cc1)N1CCCCC1 (stereo not given),0%,-5%,0%,?,-15%,5%,-1.6%,4%
CCOC(=O)c1c(C)[nH]c(C)c1S(=O)(=O)N1CCC(C(=O)NCc2ccccc2Cl)CC1,.,.,44%[activator],.,16%[46.1 µM],.,-7.5%,3%
Cc1ccc(NS(=O)(=O)c2ccc(CCC(=O)NCCO)cc2)cc1,4%,-14%,23%,5%,-7%,3%,1.0%,0%
CC1CN(c2nc3c(c(=O)[nH]c(=O)n3C)n2Cc2ccccc2F)CC(C)O1 (stereo not given),?,4%,-3%,-5%,-11%,0%,1.3%,8%
COc1ccc(/C=C\C(=O)CC(O)(c2ccccc2)C(F)(F)F)cc1 (stereo not given),-28%,-58%,20µM*,-19%,?,-4%,-7.5%,0%
Cc1ccc(C)c(NC(=O)CSc2sc3c(O)cc(=O)[nH]c3c2C#N)c1,2%,?,1%,0%[46.1 µM],17%,-8%,.,.
O=C(NCC(=O)N(c1ccccc1F)C(C(=O)NCC1CCCO1)c1ccccc1)c1ccco1 (stereo not given),1%,-1%,14%,2%&2%,1%,-9%,-0.3%,11%
NS(=O)(=O)c1cccc(Nc2nc3ccccc3nc2NS(=O)(=O)c2ccc(Cl)cc2)c1,-2%,.,-8%,?,-5%[46.1 µM],20%,.,.
COc1ccc(C(=O)c2c[nH]c3ccccc23)cc1,.,-13%,-10%,?,?,-11%,-2.4%,-3%
O=C(N/N=C/c1ccncc1)c1ccc(OCc2ccccc2)cc1,-1%,1%,-14%,.,.,2%,.,.
Cc1ccc(-c2nc(C#N)c(NCc3cccc4c3OCO4)o2)cc1,-11%,-34%,22%,11%,2%,7%,-10%,-4%
COCCCNC(=O)CSc1ccc(Cl)cc1,-1%,2%,32%[activator],5%,10%,-8%,8.2%,1%
Nc1cc(N)cc(C(=O)OCC(=O)Nc2cc(S(=O)(=O)N3CCCCC3)ccc2Cl)c1,0%,.,0%,-25%,-1%,6%,.,.
COc1ccccc1C(CC(=O)N1CCCC1)c1ccc2c(c1)OCO2 (stereo not given),-2%,.,-6%,-5%[14.2 µM],3%,19%,.,.
Cc1ccc(Cn2nnnc2CN2CCC(NC(=O)C(C)(C)C)CC2)cc1,1%,-6%,-14%,-11%[46.1 µM],?,2%,.,.
COc1ccc(-n2c(/C=C/c3cccc4ccccc34)nc3ccccc3c2=O)cc1Cl,.,.,?,.,2%[46.1 µM],.,-0.7%,?
O=C(NC(=S)Nc1ccc(F)c(Cl)c1)C1CC1,19%,-18%,4%,1%[46.1 µM],?,-19%,.,.
CC(=O)c1cc(OC(=O)N2CCOCC2)ccc1OC(=O)N1CCOCC1,7%,8%,13%,23%,6%,12%,2.3%,-9%
CCCCN1C(=O)C(O)(c2ccccc2)c2cc(Br)ccc21 (stereo not given),-3%,0%,0%,.,.,-5%,.,.
CCOc1ccc2oc(=O)cc(CN3CCN(C(=O)c4cccc(Cl)c4)CC3)c2c1,.,.,-17%,24%[46.1 µM],18%[46.1 µM],.,-9.0%,12%
CCOc1ccccc1N(C)C(=O)c1ccc2c(=O)n3c(nc2c1)CCCCC3,29%,-15%,-13%,?,-26%[46.1 µM],1%,.,.
CC(=O)Nc1ccc(S(=O)(=O)N2CCN(CCC#N)CC2)cc1,0%,-7%,4%,.,.,1%,-9.0%,3%

# Copied from the list:
# `COc1ccc(C(=O)c2c[nH]c3ccccc23)cc1` – StopGo reporter: -10%
# `COc1ccc(CCNC(=O)CSc2nnc(Cc3csc(N)n3)n2C)cc1OC` – NS1 inh: -3%
# `CCOC(=O)C1=C(NC(=S)NC(=O)c2ccccc2)c2ccccc2CC12CCCC2` – NS1 inh: -12%
# `O=c1c(NCCc2ccc(Cl)cc2)c(-c2ccccc2)c1=O` – StopGo reporter: -2%
# `COC(=O)Nc1ccc(S(=O)(=O)N2CCC(Cc3ccccc3)CC2)cc1` – Cruzain inh Det: -2.3%
# `CC1CN(c2nc3c(c(=O)[nH]c(=O)n3C)n2Cc2ccccc2F)CC(C)O1` (stereo not given) – RE007 growth inh: 0%
# `O=c1ccc(Cc2ccccn2)n[nH]1` – Marburg entry inh: 15%

# Screening data as filed in PubChem.
